Screening results deposited in PubChem BioAssay by several laboratories.
Beta2AR agonist: activates human beta-2 adrenergic receptor causing internalization | P07550 | Am2.2-beta2AR cells, FAP receptor internalization, flow cytometry; reference of the scale not given here | response, % (no concentration beside the values) | actives 0.43% (n = 340,000) | AID 504454;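 active = response above a set limit, near 3 SD of response in nonfluorescent compounds, cut at about 42% in these data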;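 note: stock transfer was 100 nL into about 11 µL; a reference agonist was the positive control; negative values mostly stem from fluorescent compounds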
Target sequence (P07550 whole entry, looked up): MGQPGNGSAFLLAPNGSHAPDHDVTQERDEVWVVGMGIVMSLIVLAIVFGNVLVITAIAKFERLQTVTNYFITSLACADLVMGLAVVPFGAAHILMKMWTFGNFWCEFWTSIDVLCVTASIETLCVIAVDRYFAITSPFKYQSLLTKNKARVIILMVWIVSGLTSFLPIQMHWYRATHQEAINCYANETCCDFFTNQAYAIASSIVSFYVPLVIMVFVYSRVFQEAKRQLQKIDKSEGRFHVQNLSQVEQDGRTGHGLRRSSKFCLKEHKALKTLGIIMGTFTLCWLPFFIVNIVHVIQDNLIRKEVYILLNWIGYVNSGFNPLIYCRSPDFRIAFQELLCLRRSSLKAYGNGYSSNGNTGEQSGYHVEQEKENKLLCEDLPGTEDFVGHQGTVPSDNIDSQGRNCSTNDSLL
ALR H2O2 inh: blocks human ALR sulfhydryl oxidase activity; purified ALR, DTT oxidation, H2O2 HRP-luminol luminescence; inhibition, % (concentration not given with the values); actives 3.8% (n = 290,000); AID 485317;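 active = mean and each replicate at 75% or more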;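 note: stock transfer was 7.5 nL into about 7.5 µL; 0% = neutral wells and 100% = wells with inactivated enzyme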
HNF4A DNA FP: change in binding of human HNF4 alpha to DNA. P41235. HNF4a-FITC DNA binding, fluorescence polarization, 1 h. activity change, % at 10 µM. actives 0.3% (n = 360,000). AID 1224865; in the data active = activity change above about 30%, passing the limit was not always enough;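 note: controls were the assay level and a saturating level of protein; the project sought stronger binding though the title names inhibitors; some compounds called inactive have numbers as strong as hits; positive values seem to mean higher polarization but the record does not say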
UCH37 inh: human UCH37 deubiquitinating enzyme inhibition; inhibition, % (test concentration not listed); purified proteasome/UCH37, Ub-AMC cleavage fluorescence; actives 0.33% (n = 330,000); AID 588478;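 active = mean of two replicates above 20%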;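 note: 0% = compound-free wells with enzyme and 100% = wells lacking proteasome; stock transfer was 100 nL into about 20 µL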
Target sequence (Q9Y5K5 whole entry, looked up): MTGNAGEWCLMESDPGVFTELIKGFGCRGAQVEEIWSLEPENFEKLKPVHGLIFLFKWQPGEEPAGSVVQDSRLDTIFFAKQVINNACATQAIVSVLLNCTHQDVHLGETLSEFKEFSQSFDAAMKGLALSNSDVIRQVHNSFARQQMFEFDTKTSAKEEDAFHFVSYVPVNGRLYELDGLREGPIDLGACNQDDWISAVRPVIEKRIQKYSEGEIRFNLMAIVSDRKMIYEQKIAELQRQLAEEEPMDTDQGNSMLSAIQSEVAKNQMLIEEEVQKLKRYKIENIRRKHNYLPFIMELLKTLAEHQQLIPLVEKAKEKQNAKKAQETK
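Material: human UCH37 enzyme supplied as purified proteasome complex / Amount: 0.15 nM proteasome as dispensed / Buffer or medium: pH 7.4 Tris-HCl (50 mM) with ovalbumin, ATP-MgCl2, DTT / Times: preincubation 30 min, reaction 25 min, room temperature / Technique: AMC fluorescence from Ub-AMC cleavage, excitation 355 nm, emission 460 nm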
Ecoli growth: inhibitors of Escherichia coli growth; OD600, 23 h; active compounds read low; actives 0.21% (n = 330,000); OD600 absorbance (concentration not given with the values);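 active = OD600 absorbance below the run mean of sample wells minus 3.6 SD, in any replicate, cut at about 0.56 in these data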;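 note: stock transfer was 300 nL into about 60 µL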
FGF22 binding: shifts melting point of recombinant human FGF22; calls only at 9.99 µM; recombinant FGF22 thermal shift, SYPRO orange fluorescence; percent of sucrose octasulfate shift, DMSO zero; actives 1.5% (n = 340,000); AID 651658;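 active = melting point raised past a set limit in the mean and every replicate; three in four hits are not shown here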
Target sequence (Q9HCT0 whole entry, looked up): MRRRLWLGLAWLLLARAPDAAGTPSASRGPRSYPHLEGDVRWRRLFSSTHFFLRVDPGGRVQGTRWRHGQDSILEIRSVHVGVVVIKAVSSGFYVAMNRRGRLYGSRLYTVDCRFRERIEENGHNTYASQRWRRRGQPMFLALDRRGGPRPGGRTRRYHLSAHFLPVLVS
Ecoli rRNA inh: inhibits bacterial ribosomal RNA function over humanized ribosomes. E. coli WT GFP vs humanized-ribosome RFP mutants, fluorescence, 24 h; active compounds read low; DMSO median 0, no signal -100. GFP signal change (wild-type ribosome), % (concentration not given with the values). actives 1.6% (n = 350,000);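 active = significant combined selectivity score with lowered wild-type GFP, culture density cut under 30%, mutant RFP and density less affected; inactive = any of these conditions unmet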; note: one replicate is shown; some compounds called inactive have numbers as strong as hits
Ecoli rRNA inh OD600: also measured in Ecoli rRNA inh; calls as there; OD600 change, %; measured here: OD600 growth;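 optical density of the mix in the first replicate; 0 = DMSO median and -100 = no signal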
Ecoli rRNA inh RFP: second read-out of Ecoli rRNA inh, no call of its own (marks repeat the call); RFP signal change, %; measured here: RFP humanized mutant strains;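 first replicate; 0 = DMSO median and -100 = no signal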
The depositor's hits bear a star; i = inactive; . = not tested or not shown; + = active, no number; & = joins results of further samples. A portion of the library; count on the stated rates, not on these rows.

Start of the listing, in advance (3 entries):
Ecoli rRNA inh,Ecoli rRNA inh RFP,UCH37 inh,Beta2AR agonist,ALR H2O2 inh,HNF4A DNA FP,FGF22 binding,Ecoli growth,Ecoli rRNA inh OD600,Structure
-39,-14,1.3,12,-4,1.0,i,.,-62,CC1(C)c2[nH]c3ccccc3c2C[C@H]2C(=O)N(Cc3ccccc3F)C(=O)N21
14,-0.4,2.2,-1,.,7.1,i,0.67,10,COc1cccc(CN2CCC(Oc3ccc(C(=O)NCc4ccccn4)cc3)CC2)c1O
-48,11,9.7,-17,9,6.0,i,0.73,-50,Nc1nn2c(-c3ccccc3)cc(=O)[nH]c2c1N=Nc1ccc(O)cc1

All compounds of this part (from the top)
Ecoli rRNA inh,Ecoli rRNA inh RFP,UCH37 inh,Beta2AR agonist,ALR H2O2 inh,HNF4A DNA FP,FGF22 binding,Ecoli growth,Ecoli rRNA inh OD600,Structure
-39,-14,1.3,12,-4,1.0,i,.,-62,CC1(C)c2[nH]c3ccccc3c2C[C@H]2C(=O)N(Cc3ccccc3F)C(=O)N21
14,-0.4,2.2,-1,.,7.1,i,0.67,10,COc1cccc(CN2CCC(Oc3ccc(C(=O)NCc4ccccn4)cc3)CC2)c1O
-48,11,9.7,-17,9,6.0,i,0.73,-50,Nc1nn2c(-c3ccccc3)cc(=O)[nH]c2c1N=Nc1ccc(O)cc1
.,.,-54,-6,0,-0.4,.,0.74,.,Cc1ccc(-c2cc(-c3nnc(SCC(=O)N(C)CCC#N)n3N)c3ccccc3n2)cc1
.,.,-0.3,-31,1,0.5,.,0.7,.,CCCS(=O)(=O)c1nc(S(=O)(=O)c2ccc(C)cc2)c(NCCCN2CCOCC2)s1
11,5.5,-3.6,5,.,4.8,i,0.71,4,Nc1ccc2nc(N)sc2c1
6,-3.1,2.0,-1,0,-0.6,i,0.71,1,O=C(COC(=O)c1ccc(CO)cc1)NCc1cccs1
4,-6.9,5.7,0,-5,-4.4,.,0.72,-1,Cn1nnnc1SCC(=O)Nc1ccc(S(=O)(=O)N2CCOCC2)cc1
.,.,2.1,-17,17,-3.9,.,0.72,.,Cc1ccc(-n2nnnc2/C=C\Nc2cc(C)on2)cc1
6,7.5,3.2,-1,.,2.2,i,0.69,4,Nc1ccc(Br)c[n+]1Cc1cccc2cccnc12
2,0.3,2.5,-18,1,-3.3,i,0.66,5,COc1cccc(CN(C(=O)c2cc3ccccc3oc2=O)C2CCS(=O)(=O)C2)c1 (stereo not drawn)
-3,4.0,0.7,-2,.,3.3,+,0.69,-9,CC(C)N(Cc1ccccc1)C(=O)COC(=O)C1CCN(c2ccc(C(F)(F)F)cn2)CC1
4,0.5,-4.3,-2,-3,2.0,i,0.69,6,CCc1cc(=O)oc2cc(OCC(=O)NCCCN3CCOCC3)c(Cl)cc12
8,-0.5,4.8,4,2,0.5,.,0.7,-2,COC(=O)c1c(NC(=O)CSc2nnnn2C)sc(C)c1C
-6,-0.5,6.5,-15,2,-0.2,i,0.66,-2,Cn1c(O)c(N=NC(=O)CNC(=O)/C=C/c2ccccc2)c2ccccc21
.,.,1.6,7,12,-15,.,0.72,.,Cc1noc(NS(=O)(=O)c2ccc(NC(=O)c3ccoc3C)cc2)c1C
6,0.0,-0.7,5,99*,0.7,i,0.73,10,COc1ccc(-c2nc(CS(=O)CC(=O)N3CCc4ccccc4C3)c(C)o2)cc1 (stereo not drawn)
.,.,1.9,-11,11,2.3,.,0.74,.,CCc1c(C(=O)NC2CCCCC2)[nH]c(C)c1C(C)=O
0,1.7,0.7,-9,.,0.6,i,0.67,3,CCOC(=O)N1CCN(Cc2nc3cc(NC(=O)C(C)C)ccc3n2C)CC1
.,.,-2.3,-7,96*,-1.2,.,0.76,.,Cn1c(-c2sc3cc(C(F)(F)F)cnc3c2-c2ccccc2)n[nH]c1=S
13,-3.0,-42,3,4,-2.2,i,0.7,14,CCOc1ccc(-c2nc(S(=O)(=O)c3ccccc3)c(NC)o2)cc1
.,.,0.0,0,3,-5.2,.,0.73,.,Cn1c(=O)c2c(-c3ccccc3F)c3c(nc2n(C)c1=O)-c1ccccc1C3O (stereo not drawn)
3,-0.6,-0.7,-4,1,2.3,i,0.65,8,CS(=O)(=O)c1nc2c(cc1C#N)CCCC2
1,1.4,0.7,-2,-13,-0.8,i,0.61,-8,COc1ccc2cc(C(=O)N3CCN(c4ccccc4OC)CC3)[nH]c2c1
.,.,-5.5,13,.,-3.2,.,0.76,.,COCCn1nnnc1CN(CCCN1CCOCC1)Cc1cc2c(C)ccc(C)c2[nH]c1=O
.,.,4.7,-9,18,-0.1,.,0.69,.,CC(C)(O)C(=O)NN(Cc1ccccc1)c1ccccc1
.,.,10,9,14,0.7,.,0.74,.,CCOC(=O)c1c(C)[nH]c(C=Nc2ccc(OC)cc2)c1O
17&0,2.1&-2.0,.,.,.,2.2,i,.,12&9,C[C@@H]1CN([C@H](C)CO)C(=O)c2cc(Br)cnc2O[C@H]1CN(C)C(=O)Nc1ccccc1F
.,.,5.1,-2,.,0.1,.,0.8,.,CC(C)c1ccc(S(=O)(=O)N2CCN(CCC(=O)Nc3ccc(N(C)C)cc3)CC2)cc1
.,.,7.5,1,.,2.4,.,0.7,.,Cc1ccc(C)c(/C(O)=C2/C(=O)C(=O)N(CCN3CCOCC3)C2c2ccc(C)o2)c1 (stereo not drawn)
-7,0.9,3.3,1,-19,1.0,i,0.73,-5,COc1ccc(CCNC(=O)CN(c2cc(C)cc(C)c2)S(=O)(=O)c2c(C)noc2C)cc1OC
5,-1.0,2.3,-11,-2,3.0,i,0.7,12,COc1ccccc1NS(=O)(=O)c1cc(-c2cc(C)no2)ccc1OC
-10,-2.9,3.1,5,-4,-2.4,i,0.71,-7,CCN(CC)S(=O)(=O)c1ccc(OC)c(NC(=O)c2cccc(C)c2[N+](=O)[O-])c1
-12,-3.7,-0.2,3,0,0.9,i,0.68,-34,O=C(COC(=O)c1ccccc1OCc1ccc(Cl)cc1)NCC1CCCO1 (stereo not drawn)
6,0.8,-1.0,3,-14,2.3,i,0.71,11,Oc1ccccc1Nc1nc(-c2ccccc2O)nc2ccccc12
2,2.6,2.3,2,-6,0.3,i,0.68,8,O=C(NC12CC3CC(CC(C3)C1)C2)c1cccc(OC(F)F)c1
.,.,1.1,-4,-8,1.9,.,0.7,.,O=C(NC1CCN(Cc2ccccc2)CC1)c1cc(-c2ccccn2)nc2ccccc12
13,-1.9,3.3,-2,.,3.9,i,0.72,16,CCn1cc(CN2CCCC(CNS(=O)(=O)c3ccc(OC)cc3)C2)cn1 (stereo not drawn)
.,.,2.0,-1,-1,1.2,.,0.68,.,CCCC(=O)NCCc1nc2ccccc2n1CC(=O)c1ccccc1
-2,-1.2,4.8,-8,.,2.2,i,0.65,7,COc1ccccc1NS(=O)(=O)c1ccc2oc(=O)ccc2c1
.,.,1.3,0,-5,-1.2,i,0.66,.,COc1ccc(NC(=O)CCN2C(=O)NC3(CCCC3)C2=O)cc1Cl
.,.,0.9,-8,-1,1.7,.,0.7,.,O=c1c(-c2ccnn2-c2ccc(F)cc2)cnc2n1CCS2
14,1.7,1.1,-6,1,-0.1,i,0.69,20,Cc1c(NC(=O)C(C)OC(=O)c2cc(Cl)ccc2O)c(=O)n(-c2ccccc2)n1C (stereo not drawn)
.,.,4.1,-3,6,1.4,.,0.69,.,O=C1CC(c2cccc([N+](=O)[O-])c2)c2c(ccc3ccccc23)N1 (stereo not drawn)
.,.,0.8,-3,6,-2.5,.,0.68,.,Cc1cc(C)n(C(=O)c2ccc(C)o2)n1
-40,-12,6.3,8,-33,0.3,i,0.7,-65,COc1ccc(NC(=S)Nc2ccc(C)c(Cl)c2)cc1OC
-32,-1.2,-0.6,-2,-6,-0.6,i,0.73,-35,COc1ccccc1CNC(=O)c1oc2ccccc2c1C
10,3.0,-15,76*,22,1.9,i,0.72,4,Cc1ccc(NC(=O)c2cc(N3C(=O)C=CC3=O)ccc2N2CCOCC2)cc1Cl
-22,-1.4,-1.8,2,-7,-1.4,i,0.65,-21,Cc1ccc(NC(=O)C(=O)NCC2CCCN2S(=O)(=O)c2cccs2)cc1 (stereo not drawn)
4,-2.0,4.4,-3,7,2.3,i,0.7,-3,Cc1ccc(-c2nnc(SCC(=O)NC3CC3)n2N)cc1

More structures.
Ecoli rRNA inh,Ecoli rRNA inh RFP,UCH37 inh,Beta2AR agonist,ALR H2O2 inh,HNF4A DNA FP,FGF22 binding,Ecoli growth,Ecoli rRNA inh OD600,Structure
-13,17,2.4,-59,5,1.2,i,0.66,-8,O=C(NCCc1ccccc1)C(c1cccs1)N(C(=O)CCl)c1ccc(Cl)cc1 (stereo not drawn)
8,-7.5,0.6,0,-1,1.5,i,.,-4,N[C@@H](CO)c1nnc([C@H](CCC(=O)O)NC(=O)C2CCNCC2)o1
.,.,0.8,2,-3,-4.4,.,0.69,.,CC1CCCCN1S(=O)(=O)c1ccc(S(=O)(=O)N2CCN(c3ccc(F)cc3)CC2)cc1 (stereo not drawn)
.,.,6.6,2,-2,4.8,.,0.69,.,COc1cc(NC(=O)Cn2c(-c3cncs3)nc3ccccc32)cc(OC)c1OC
.,.,-32,6,97*,-18,.,0.78,.,CSc1nc(NCCOCCO)c2sc3nc(-c4ccco4)c4c(c3c2n1)CCC4
-15,-0.8,0.8,-5,.,3.3,i,0.66,-17,COc1cc(OC)cc(C(=O)NC(C(=O)Nc2ccc3nc(C)sc3c2)C(C)C)c1 (stereo not drawn)
.,.,2.4,0,-11,1.0,.,0.73,.,O=C(NC1CCN(Cc2ccccc2)CC1)C1COc2ccccc2O1 (stereo not drawn)
.,.,4.9,-12,-3,-0.5,.,0.7,.,Cc1cc(NS(=O)(=O)N(C)C)ccc1C(C)C
7,-4.9,-95,0,16,-4.8,i,0.67,-6,CCO/C=C1\C(=O)N(c2ccc(OCC)cc2)C(=O)c2ccccc21
14,11,2.6,4,-7,-0.5,i,.,10,CCCN1CCC(=O)N([C@H](CO)CC(C)C)CC1
11,1.7,.,.,.,2.2,i,.,-2,Cc1nnc(SCC(=O)NC2CCCCC2)n1-c1ccccc1
-13,-5.1,.,1,.,0.1,i,.,-5,CCOc1cc(/C=N/NC(=O)c2cc(C3CC3)[nH]n2)ccc1O
17,-0.1,2.7,-5,-2,4.4,.,0.74,17,COc1ccc(Cn2c(C)nnc2-c2cnn(C)c2N)cc1OC
.,.,-1.9,4,-4,1.5,.,0.68,.,Cc1cccc(OCCCOc2cccc3cccnc23)c1C
-6,1.2,.,.,.,-1.7,i,.,-5,COc1cccc(CN2CCC2(C)C(=O)Nc2ccc(Cl)c(Cl)c2)c1F (stereo not drawn)
.,.,0.0,1,-2,-1.3,.,0.68,.,CCN(CC)S(=O)(=O)c1cc(NC(=O)CCNC(=O)c2ccccc2Cl)ccc1C
-17,-1.3,1.1,-4,.,1.4,i,0.68,-8,O=C(O)c1cc(-c2ccccc2Cl)n(-c2cccc(Cl)c2)n1
4,-0.1,2.8,-1,-18,-1.6,i,0.71,4,COc1ccc(Nc2ncnc3ccc(Br)cc23)c(OC)c1
16,-2.3,6.6,4,-8,1.1,i,0.68,10,CC1(C)CC(O)C(C(O)c2cccc([N+](=O)[O-])c2)C(C)(C)N1 (stereo not drawn)
0,0.0,4.2,-4,-6,1.8,i,0.7,-8,O=C(NCCN1CCCC(O)C1)c1cc(COc2ccc(F)cc2Cl)on1 (stereo not drawn)
.,.,-0.7,2,-2,3.0,.,0.68,.,CSc1nc2sc3c(c2c(=O)n1C)CCC(C)C3 (stereo not drawn)
